Assay outcomes from PubChem.
BJeLR lethal: MLPCN primary cell-based screen for lethality selective to Ras in HRASV12 cells. 0.17% of 300,000 active. AID 1554, 2009. inhibition, % (test concentration not listed). BJeLR (HRASV12) viability, CellTiter-Glo ATP luminescence, 48 h; reference of the scale not given here;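 active means replicate mean above 50%; inconclusive means above 50% but judged a plate artefact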;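 further: 50 nL library stock added to about 25 µL; numbers are from one replicate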
PrP 5UTR inh: inhibition of PrP 5' UTR reporter expression. cell-based PrP 5' UTR mRNA reporter, plate reader. inhibition, % (test concentration not listed). 0.35% of 340,000 active;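 active means every replicate at 50% or more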;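 further: 0 = median of the neutral control wells; tested in H4 reporter cells; numbers are from one replicate; inactives centre near -14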
ugtP null kill: growth inhibition of ugtP-null S. aureus, primary screen, RN4220 ugtP deletion, OD600. 16 h; some inactives read as strong as hits. growth inhibition, % (no concentration beside the values). 0.54% of 330,000 active;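 active means z-score under -3 and OD600 up to 0.15 on both plates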;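 further: plate controls were untreated wells for no effect and antibiotic for full effect; wells of about 80 µL received 100 nL stock; the first replicate is given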
RN4220 kill: growth inhibition of S. aureus RN4220, primary screen, OD600 | 16 h | AID 1259311, 2017 | 0.33% of 330,000 active | inhibition, % (no concentration beside the values);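 active means z-score of -3 or lower and OD600 up to 0.18 on both plates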;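 further: plate controls were untreated cells for no effect and reference antibiotic for full effect; stock transfer was 100 nL into about 80 µL; one replicate is shown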
Mtb hypoxia rep: PubChem AID 1159583. M. tuberculosis hypoxia-regulated fluorescent reporter, fluorescence. fluorescence inhibition, % (test concentration not listed). 0.1% of 300,000 active;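 active means 35 to 45% if threefold the growth effect, above 45% if 1.5-fold the growth effect; inactive means the rest, general growth blockers included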;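 further: wells of about 50 µL received 100 nL stock; 0% = vehicle wells and 100% = reference inhibitor wells; whole bacteria with a GFP reporter of the hypoxia response; strong numbers were not always called active; many hits fall short of the cut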
Bead autofluor: compound fluorescence in toxin protease inhibitor counterscreen. 3.1% of 360,000 active. compound autofluorescence counterscreen, microsphere flow cytometry; stronger effect = higher value. fluorescence intensity (no concentration beside the values);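 active means at least 3 SD above the mean of all compounds, about 16000 in these data; inconclusive means too few beads counted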;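 further: 100 nL of 1 mM stock went into each well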
Mtb hypoxia rep growth: also measured in Mtb hypoxia rep; calls as there; growth inhibition, %; measured here: M. tuberculosis growth (absorbance);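 0% = vehicle and 100% = reference antibiotic; read after six days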
Numbers without * were called inactive; ? = inconclusive; . = no result given.

SMILES	BJeLR lethal	PrP 5UTR inh	ugtP null kill	RN4220 kill	Mtb hypoxia rep	Mtb hypoxia rep growth	Bead autofluor
COc1ccc(N2CCN(c3nc4c(c(=O)[nH]c(=O)n4C)n3Cc3cccc(C)c3)CC2)cc1	4	-10	2	4.3	10	0	2485
COc1ccc(CCNC(=O)CCS(=O)(=O)c2cccc3nsnc23)cc1OC	-5	-74	-2	2.7	1	21	4285
COc1ccc(OC)c(NC(=O)CSc2nc3ccccc3cc2Cc2ccccc2)c1	-7	-12	13	-1.5	-1	5	9309
Cc1ccc(S(=O)(=O)N2CCCCCC2)cc1[N+](=O)[O-]	0	-48	-1	4.5	16	9	2398
O=S(=O)(c1ccc(F)cc1)N1CCN(c2ccc(-c3ccccc3)nn2)CC1	3	-53	1	8.5	9	-3	4132
CCOc1ccc(OCC(=O)Nc2ccc(S(N)(=O)=O)cc2)cc1	1	-4	-12	-0.3	-6	7	3458
CC1CCC(=NNc2ccccc2)C(=O)N1 (centres undefined)	.	.	2	3.5	6	1	.
NS(=O)(=O)c1cccc(NC(=O)CSc2nnc(C3CC3)n2Cc2ccccc2)c1	5	-21	10	3.6	16	-6	5853
CCC(=O)OC1(C#CCOc2ccc(OC)cc2)CCN(C)CC1	-15	-18	1	2.6	15	1	4000
CCCCOC(=O)N/N=C/C=C/c1ccccc1	1	-21	.	.	.	.	7587
Cc1cc(C)n(-c2ccc([N+](=O)[O-])cc2-c2nn[nH]n2)n1	-1	-11	-3	-2.0	13	18	4464
COc1ccc(CCN2C(=O)c3ccccc3NC2c2cc(Cl)c(O)c(OC)c2)cc1 (centres undefined)	37	-19	-14	1.3	2	-1	4133
CCOc1ccc(Nc2nc(N)c([N+](=O)[O-])c(N3CCN(C)CC3)n2)cc1	7	-1	-4	2.0	-12	5	3805
CN(C1CCCCC1)S(=O)(=O)c1ccc(S(=O)(=O)N2CCN(CCC#N)CC2)cc1	-4	-14	5	1.0	.	.	6572
CCC1(C)CC(CCNCc2ccc(N(C)C)cc2)(c2ccc(F)cc2)CCO1 (centres undefined)	-1	-11	-13	0.2	-3	6	4338
CC(C)Oc1ccc(S(=O)(=O)N(C(C)C)C(C)C)cn1	-6	0	8	11	.	.	3831
O=C(C=Cc1cccs1)N1CCC2(CC1)Oc1ccc(Cl)cc1C(=O)C21CC(c2cccnc2)=NO1 (centres undefined)	.	.	-25	4.2	-5	0	.
Cc1ccc(-n2nccc2-c2nn(-c3cccc(C(F)(F)F)c3)c(=O)n(C)c2=O)cc1	-5	-41	3	1.5	-2	-8	4200
O=C(Nc1nc2ccccc2[nH]1)c1ccc(Br)o1	4	-71	7	-4.2	-2	10	4240
CCN(CC)CCn1c2ccc(Cl)cc2c2nc(C)sc21	8	-4	6	0.1	3	0	4095
COc1ccc(CN2CC[C@H]3C=CC[C@@H](C(=O)NCCc4ccccc4)[C@H]3C2=O)cc1OC	2	-41	.	.	.	.	3580
O=C(c1ccc(S(=O)(=O)N2CCOCC2)cc1)N(Cc1ccco1)Cc1cccs1	-6	5	8	1.2	-3	-2	7006
CC1CN(S(=O)(=O)c2cccc(C(=O)NCC3COc4ccccc4O3)c2)CC(C)O1 (centres undefined)	.	-8	-1	-0.1	6	11	3780
COc1cccc(C2SCC(=O)N2c2ccc(Cl)cc2)c1OC (centres undefined)	-4	10	10	-4.9	0	5	7112
O=C(NC1=NCCS1)c1cccc(S(=O)(=O)N2CCc3ccccc32)c1	-2	-7	-4	5.6	1	12	5178
Additional structures follow:
SMILES	BJeLR lethal	PrP 5UTR inh	ugtP null kill	RN4220 kill	Mtb hypoxia rep	Mtb hypoxia rep growth	Bead autofluor
COc1ccc(CN2CCCC(C(=O)N3CCCC3)C2)c(OC)c1 (centres undefined)	8	-19	14	3.3	2	-8	3163
CC(C)Nc1nc(-c2ccccc2)nc(-n2ccnc2)n1	-1	-14	-10	1.5	7	13	5239
Cc1ccccc1OCC(=O)NC1=NCCS1	1	-49	2	2.9	14	5	11455
COCCCNC(=O)c1c(N)n(Cc2ccco2)c2nc3ccccc3nc12	6	.	5	0.4	7	-7	4200
CN(Cc1ccc2c(c1)OCO2)C(=O)c1cc(-c2ccccc2)c(N2CCOCC2)s1	.	-14	8	-3.2	8	-5	3482
O=C(c1cccc(F)c1)N1CCN(c2ccc([N+](=O)[O-])c(N3CCOCC3)c2)CC1	4	-13	-1	3.3	9	-6	2108
CCCS(=O)(=O)n1nc(-c2ccc(C)cc2)cc1N	5	-18	-8	-2.4	-3	-8	5753
COc1ccc(Cc2nc(-c3cccnc3)no2)cc1OC	28	-3	-3	-1.0	1	3	4261
c1ccc(Cc2nn3c(-c4ccncc4)nnc3s2)cc1	9	-17	7	3.2	8	-3	9276
CC(=O)N1CCc2cc(Br)cc(S(=O)(=O)NCCCN3CCCC(C)C3)c21 (centres undefined)	12	-23	-2	-0.5	.	.	.
CCCC(=O)N1CCN(c2nnc(-c3ccccc3)c3ccccc23)CC1	-1	-16	3	-0.8	-1	3	2858
O=C(COc1ccc(Cl)cc1Cl)Nc1ccc(C(=O)Nc2ccccc2C(=O)O)cc1	1	-17	14	-1.5	22	9	.
Cc1c(NC(=O)c2cc3c(s2)-c2ccccc2OC3)cccc1[N+](=O)[O-]	0	-11	-19	1.1	11	3	10550
Cc1ccc(C2=NCCn3c2c2ccc([N+](=O)[O-])cc2[n+]3[O-])cc1	4	-34	24	30	.	.	3366
Cc1cc(C)cc(C(=O)N[C@@H](C)C(=O)N2CCC3(CC2)NCCc2[nH]cnc23)c1	-6	-13	14	4.8	4	9	4526
CCCCC1(CC)COC(c2ccccc2)OC1 (centres undefined)	.	.	0	2.1	15	5	3366
COc1ccc(F)cc1S(=O)(=O)Nc1cc2c3c(c1)CCC(=O)N3CCC2	4	-22	5	3.3	-8	-4	6001
Cc1cc(C)cc(NC(=O)CSc2nc3ccccc3nc2N2CCCCC2)c1	-5	-21	.	.	.	.	5607
CC(=O)Nc1ccc(S(=O)(=O)N(C)CC(=O)OCC(=O)NNC(=O)c2ccccc2F)cc1	1	-17	1	2.5	-7	0	6261
CCN(CC(=O)Nc1cccc(F)c1)Cc1nc2ccccc2c(=O)[nH]1	-4	-17	-11	-1.9	-9	-6	3375
COc1cc(Cl)c(C)cc1NC(=O)CC1CCCC1	-5	-13	11	0.0	12	6	3145
CCn1cc(CCC(=O)NC(C)c2ccccc2)c2ccccc21 (centres undefined)	-2	-11	-4	0.3	4	9	3840
CCN1CCN(c2nc3ccccn3c(=O)c2C=O)CC1	2	-18	1	0.1	12	8	3661
Cc1onc(-c2ccccc2)c1C(=O)N1CCOC12CCN(c1cccc(F)n1)CC2	2	-23	-2	1.0	5	8	3663
CCN(CC(=O)Nc1ccccc1C(F)(F)F)C(=O)c1ccc(=O)n(Cc2ccccc2)n1	-33	-9	9	5.3	6	2	6458
The results go on.
SMILES	BJeLR lethal	PrP 5UTR inh	ugtP null kill	RN4220 kill	Mtb hypoxia rep	Mtb hypoxia rep growth	Bead autofluor
C=CCn1c(CNC(=O)c2cccs2)nnc1SCC(=O)Nc1ccc(C(=O)O)cc1	11	-13	3	2.7	6	5	19549*
Cc1onc(-c2c(F)cccc2Cl)c1C(=O)Nc1sc2c(c1C(N)=O)CCC2	8	6	-40	-1.3	0	-4	16903*
O=[N+]([O-])c1cccc(S(=O)(=O)N2CN(c3ccc(Br)cc3)c3nc4ccccc4nc32)c1	.	-20	-7	-8.1	8	5	3443
COCCNC(=O)CCn1nc(-c2ccc(Cl)cc2)ccc1=O	6	-16	5	4.6	8	4	?
Cc1cccc2[nH]c(CN(C)C(=O)C3CCC(=O)N(CCc4ccccc4)C3)nc12 (centres undefined)	-7	-12	10	3.9	6	-1	4898
O=C(NCCS(=O)(=O)N1CCN(c2ccccc2F)CC1)c1cccc(Br)c1	6	-15	6	4.0	15	6	5005
Cc1ccccc1-c1nsc(SCC(=O)c2ccc(Cl)cc2)n1	-14	-7	13	1.3	0	2	2247
O=C(CNC(=O)c1ccncc1)NN=Cc1ccccc1[N+](=O)[O-]	.	.	-2	-0.4	-10	-4	.
O=C(Cc1cccs1)N1CCN(c2ccc([N+](=O)[O-])cc2)CC1	6	-15	7	1.0	10	0	3536
FC(F)(F)c1ccncc1-c1nnnn1-c1ccc(Cl)cc1	3	-15	3	3.5	-1	3	4527
Clc1ccc(/C=N/Nc2nc(Cl)nc3ccccc23)cc1	5	-91	.	.	.	.	5056
CSCCC(NS(=O)(=O)c1ccc(Cl)cc1)C(=O)OCC(=O)c1c(C)[nH]c2ccccc12 (centres undefined)	-4	-1	-26	0.4	-1	7	1888
Cc1ccc([N+](=O)[O-])cc1S(=O)(=O)Nc1ccc(N2CCOCC2)cc1	7	-30	6	1.7	9	4	4613
COc1ccc(N2CCN(C(=O)CN3CCN(C(c4ccccc4)c4ccccc4)CC3)CC2)cc1	2	-28	-12	-1.6	-2	-1	2721
COc1ccc(C2CC(=O)C=C(c3ccccc3)C2)cc1OC (centres undefined)	.	.	5	7.4	3	9	.
Cc1ccc(NC(=O)CC(=O)NCCN2CCOCC2)cc1	11	-34	2	7.3	6	5	10872
O=C(CN(Cc1ccccc1)S(=O)(=O)c1ccc(Br)cc1)NN=Cc1ccccc1C(=O)O	.	.	-3	5.2	13	-1	.
COc1ccc(CCNC(=S)NC2CCN(Cc3ccccc3)CC2)cc1	-4	-47	1	2.5	-4	-5	4248
CSC1=NCCN1S(=O)(=O)c1ccc(NC(C)=O)cc1	-4	-8	1	2.6	9	0	2415
Cc1nc(SCC(=O)N2CCNC2=O)c2ccccc2n1	.	-20	2	3.6	9	5	4301
Cn1nc(C(=O)NCC2COc3ccccc3O2)c2ccccc2c1=O (centres undefined)	.	.	5	9.0	0	-3	?
O=C(Nc1ccc(Cl)c(C(F)(F)F)c1)[C@@H]1CC=C[C@@H]2CCN(C3CCCCC3)C(=O)[C@@H]21	2	-3	.	.	.	.	3855
Cc1ccc(S(=O)(=O)N(C)C)cc1NC(=S)N1CCCCC1CO (centres undefined)	-11	-16	14	6.5	1	3	5090

Of the compounds above, 13 contain fluorine:
SMILES	BJeLR lethal	PrP 5UTR inh	ugtP null kill	RN4220 kill	Mtb hypoxia rep	Mtb hypoxia rep growth	Bead autofluor
O=S(=O)(c1ccc(F)cc1)N1CCN(c2ccc(-c3ccccc3)nn2)CC1	3	-53	1	8.5	9	-3	4132
CCC1(C)CC(CCNCc2ccc(N(C)C)cc2)(c2ccc(F)cc2)CCO1 (centres undefined)	-1	-11	-13	0.2	-3	6	4338
Cc1ccc(-n2nccc2-c2nn(-c3cccc(C(F)(F)F)c3)c(=O)n(C)c2=O)cc1	-5	-41	3	1.5	-2	-8	4200
O=C(c1cccc(F)c1)N1CCN(c2ccc([N+](=O)[O-])c(N3CCOCC3)c2)CC1	4	-13	-1	3.3	9	-6	2108
COc1ccc(F)cc1S(=O)(=O)Nc1cc2c3c(c1)CCC(=O)N3CCC2	4	-22	5	3.3	-8	-4	6001
CC(=O)Nc1ccc(S(=O)(=O)N(C)CC(=O)OCC(=O)NNC(=O)c2ccccc2F)cc1	1	-17	1	2.5	-7	0	6261
CCN(CC(=O)Nc1cccc(F)c1)Cc1nc2ccccc2c(=O)[nH]1	-4	-17	-11	-1.9	-9	-6	3375
Cc1onc(-c2ccccc2)c1C(=O)N1CCOC12CCN(c1cccc(F)n1)CC2	2	-23	-2	1.0	5	8	3663
CCN(CC(=O)Nc1ccccc1C(F)(F)F)C(=O)c1ccc(=O)n(Cc2ccccc2)n1	-33	-9	9	5.3	6	2	6458
Cc1onc(-c2c(F)cccc2Cl)c1C(=O)Nc1sc2c(c1C(N)=O)CCC2	8	6	-40	-1.3	0	-4	16903*
O=C(NCCS(=O)(=O)N1CCN(c2ccccc2F)CC1)c1cccc(Br)c1	6	-15	6	4.0	15	6	5005
FC(F)(F)c1ccncc1-c1nnnn1-c1ccc(Cl)cc1	3	-15	3	3.5	-1	3	4527
O=C(Nc1ccc(Cl)c(C(F)(F)F)c1)[C@@H]1CC=C[C@@H]2CCN(C3CCCCC3)C(=O)[C@@H]21	2	-3	.	.	.	.	3855

Compounds as they come. Share with any hit: about 4%.
